TRPML1 inh – inhibitors of human TRPML1 channel; AID 624415; TRPML1-inducible cells, Ca2+ dye fluorescence, FDSS; hits give low values; inhibition of EC80 agonist-evoked calcium signal; Q9GZU1; activity change, negative = inhibition, % (no concentration beside the values); hit rate 0.02% among 390,000; in the data active means activity change below about -50%; inconclusive means about -30% to -50%; inactive means above about -30%;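 note: stimulus is agonist 54-4 at its EC80 concentration; % is set by controls: 0 for no effect and ±100 for the full control effect; compound concentration not given in the record; the text of the record puts the active cut at -80%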
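Calcium fluorescence in TRPML1-DL cells induced overnight with Tet: a 110 s read after compound pin addition, then a 110 s antagonist read after challenge with 54-4 at 4 uM final (EC80).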
gsp antagonist – antagonists of gsp mutant (McCune-Albright syndrome); gsp-mutant cells, cAMP HTRF, 30 min; control for the full effect not named in the record; hit rate 0.4% among 340,000; Potency, µM (top dose mostly 76.9 µM), without a hit: at the top dose activity change, negative = inhibition, usual class: inhibitors; AID 624288; active = falling curve of any shape with a large fitted effect; inconclusive = falling curve, mostly with a smaller effect; inactive = flat or rising curve; cell line not stated here;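 note: intracellular cAMP measured with PDE inhibitor Ro 20-1724 present during compound exposure; potency is the fitted concentration of half-maximal effect; % is set by controls: 0 for no effect and ±100 for the full control effect; nearly all actives have a fitted effect of over 65% in size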
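G418-selected cells were plated in DMEM/10% FBS for 16-24 h at 37C, then treated with compounds plus the PDE inhibitor […] (300 uM solution added) for 30 min at 37C. Intracellular cAMP was measured by HTRF after 30 min lysis at room temperature.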
Menin MLL FP FL – displaces fluorescein MLL peptide from human menin; Fluorescence polarization, fluorescein-MLL peptide displacement from menin; FP activity change, % at 61.4 µM; 290,000 tested, under 10 active; AID 1766; inconclusive = falling polarisation curve, or a change in total fluorescence; inactive = total fluorescence flat and polarisation flat or rising; no compound was filed as active; the % refers to the polarisation; negative = inhibition;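 note: % of control where 0% means no effect; inhibitors lower the polarisation; unlabelled MLL peptide was the positive control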
gsp ag – activates gsp, the McCune-Albright syndrome mutation; gsp mutant cells, cAMP HTRF, 30 min; control for the full effect not named in the record; Potency, µM (highest dose often 76.9 µM), inactives show at the highest dose activation (cAMP increase), most hits filed as activators; hit rate 0.13% among 340,000; AID 624287; active = well fitted activation curve with a large enough effect; inconclusive = small, poorly fitted or top-dose-only effect, or another doubt; inactive = no such curve, though single readings can be large or run the other way; cell line not stated here;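 note: phosphodiesterase inhibitor Ro 20-1724 added with compounds to block cAMP breakdown; potency is the fitted concentration of half-maximal effect; nearly all actives have a fitted effect of over 60% in size; about a fifth of the inactives were tested at one dose only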
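Cells stably selected in G418 were plated at 2000/well, grown 16-24 hr, then given compounds in DMSO with the PDE inhibitor […] (300 uM solution added) for 30 min at 37C; cAMP was read by HTRF.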
ClpP mod – qHTS Assay for Activators of ClpP; ATP-dependent Clp protease proteolytic subunit (Bacillus subtilis (strain 168)), P80244; purified B. subtilis ClpP, FRET peptide cleavage, 20 min; Potency, µM (highest dose often 57.5 µM), inactives show at the top dose activity change, negative = active; hit rate 1.9% among 340,000; active = well fitted falling curve with a large enough effect; inconclusive = small, poorly fitted or top-dose-only effect; inactive = no such curve, though single readings can be large or run the other way; note: potency is the fitted concentration of half-maximal effect; the source files actives as falling curves though it sought activators and does not explain the sign; nearly all actives have a fitted effect of over 65% in size; many hits overshoot -100%
Target sequence (P80244 whole entry, looked up): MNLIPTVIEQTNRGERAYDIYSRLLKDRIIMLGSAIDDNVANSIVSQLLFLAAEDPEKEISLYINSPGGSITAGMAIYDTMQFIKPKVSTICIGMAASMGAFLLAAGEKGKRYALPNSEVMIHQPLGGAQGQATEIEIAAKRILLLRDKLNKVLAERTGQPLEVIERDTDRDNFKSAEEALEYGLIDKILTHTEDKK
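FRET quenching reversal measured ClpP activation: 10 microg/mL B. subtilis ClpP at pH 8 with the FRET-FV decapeptide, read at 430 nm after 320 nm excitation. The 20-min minus 0-min signal was scaled between DMSO/no-enzyme wells and ADEP (5.8 microM final).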
TRPV1 potentiator – human TRPV1 potentiation; TRPV1-expressing cells, Fluo-8 calcium influx, capsaicin EC20 potentiation; host cell line not named in the record; control for the full effect not named in the record; potentiation, % at 8.33 µM; hit rate 0.02% among 320,000; active means potentiation above 80%; inconclusive means 30% to 80%; inactive means below 30%; note: 0% is about no effect
Target sequence (Q8NER1 whole entry, looked up): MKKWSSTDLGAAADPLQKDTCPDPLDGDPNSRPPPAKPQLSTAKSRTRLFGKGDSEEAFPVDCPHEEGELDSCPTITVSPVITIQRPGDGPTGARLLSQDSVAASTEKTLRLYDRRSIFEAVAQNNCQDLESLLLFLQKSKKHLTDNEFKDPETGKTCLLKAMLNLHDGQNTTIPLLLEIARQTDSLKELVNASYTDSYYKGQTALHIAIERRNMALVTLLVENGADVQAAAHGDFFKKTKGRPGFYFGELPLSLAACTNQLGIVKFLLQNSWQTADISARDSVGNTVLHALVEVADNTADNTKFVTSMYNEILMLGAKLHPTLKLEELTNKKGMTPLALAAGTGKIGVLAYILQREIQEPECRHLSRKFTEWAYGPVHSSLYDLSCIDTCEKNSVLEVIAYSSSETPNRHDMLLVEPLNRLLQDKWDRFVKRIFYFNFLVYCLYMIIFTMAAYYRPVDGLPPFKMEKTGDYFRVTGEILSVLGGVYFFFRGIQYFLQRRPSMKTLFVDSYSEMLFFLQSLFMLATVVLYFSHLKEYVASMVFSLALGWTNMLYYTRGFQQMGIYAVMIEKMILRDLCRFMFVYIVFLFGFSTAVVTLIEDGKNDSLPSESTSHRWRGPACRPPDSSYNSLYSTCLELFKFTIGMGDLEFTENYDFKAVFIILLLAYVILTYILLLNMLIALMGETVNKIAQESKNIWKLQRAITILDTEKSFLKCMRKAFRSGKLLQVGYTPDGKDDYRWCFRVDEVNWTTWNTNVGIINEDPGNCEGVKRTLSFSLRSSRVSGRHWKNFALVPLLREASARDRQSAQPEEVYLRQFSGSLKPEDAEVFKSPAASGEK
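Cells expressing TRPV1 were dye-loaded with Fluo-8 and read kinetically: 10 s baseline, 3 min after compound (agonist portion), then 2 min after EC20 capsaicin (allosteric enhancer portion). Calcium-bound dye fluorescence at 480/520 nm.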
Sfp PPTase inh – inhibitors of Bacillus subtilis Sfp phosphopantetheinyl transferase | Q9F4F7 | Potency, µM, without a hit: max response, negative = inhibition, most hits filed as inhibitors | hit rate 3.5% among 310,000 | Biochemical Sfp PPTase activity, qHTS; active = well fitted inhibition curve with a large enough effect; inconclusive = small, poorly fitted or top-dose-only effect, or another doubt; inactive = no such curve, though single readings can be large or run the other way;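 note: the enzyme is Sfp with the accession as filed and its product quenches rhodamine fluorescence; potency is the fitted concentration of half-maximal effect; 0% = enzyme reaction without inhibitor and -100% = no enzyme wells; top concentration of the series not given in the record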
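Fluorescence-quenching assay: 15 nM Sfp-PPTase preincubated 15 min at room temperature with compound, then 5 uM rhodamine-CoA and 12.5 uM BHQ-2-labelled YbbR peptide added. Fluorescence (ex 525/em 598 nm) read at start and after 30 min; difference gives rate.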
* = called active by the depositor; ? = inconclusive; nt = not tested or not shown; & = joins results of further samples; [ ] = dose if it differs, or a comment.

SMILES	TRPML1 inh	gsp antagonist	Menin MLL FP FL	gsp ag	ClpP mod	TRPV1 potentiator	Sfp PPTase inh
NC(=O)C1CCN(C(=O)c2ccc(-c3ccccc3)cc2)CC1	24	-2%	0.1	-4%	-5.3%	-8	12%
CCCn1c(-c2cccnc2Cl)nc2cc(Cl)c(Cl)cc21	11	-14%	2.9	2%	-18%	3	-20%
CCn1c(CSCc2ccc(C)cc2)nnc1SCC(=O)N1CCN(c2ccccc2)CC1	2	-26%	0.9	11%	-1.5%	24	5%
CN(C)C=NCCn1c(N2CCOCC2)nc2c1c(=O)n(C)c(=O)n2C	-13	7%	1.2	26%	-2.8%	4	13%
CCOc1ccccc1C(=O)OCC(=O)Nc1nnc(-c2ccccc2)o1	19	-5%	nt	-4%[15.4 µM]	-5.2%	6	nt
O=C1CC2(CCCCC2)Oc2ccccc21	14	5%	nt	nt	3.5%	nt	nt
N/C(=N\OC(=O)Cc1ccc(-c2ccccc2)cc1)c1ccncc1	16	-6%	-4.2	?	nt	15	1%
COc1ccc(CCNC(=O)C(C)OC(=O)c2nsc(Cl)c2Cl)cc1OC (stereo not drawn)	9	-25%	-2.9	24%[15.4 µM]	-0.3%	-4	5%
COc1ccccc1CNC(=O)CCC(=O)N1Cc2cccc(OC)c2Oc2ncccc21	3	-2%	nt	-8%	-0.4%	19	11%
CCN(CC)CCN(Cc1cc2ccc(C)cc2[nH]c1=O)C(=S)Nc1ccccc1C(=O)OC	7	-5%	-2.5	8%[15.4 µM]	nt	14	15%
Cc1cccc(N2CCN(C(=O)COc3cc(=O)n(C)c4ccccc34)CC2)c1C	-1	-20%	-0.4	3%	-2.9%	-3	-7%
O=C(c1ccc(Cl)c(S(=O)(=O)N2CCCC2)c1)N1CCCCC1	-13	5%	4.1	-4%	-2.2%	0	-2%
COC(=O)/C(=C1/Oc2ccc(C(C)(C)C)cc2S1)C(F)(F)F	-19	9%	3.0	-26%	0.5%	-1	-4%
Cc1ccc(C(=O)Nc2cccc(C(F)(F)F)c2)cc1NC(=O)c1nccnc1N	1&6	0%	0.6	-4%&-5%	159%&4.4%	-13	-1%
CC12CCC(C(=O)Nc3ccccc3)(C(Br)C1=O)C2(C)C (stereo not drawn)	-6	9%	0.5	-3%	1.8%	3	4%
Cc1ccc(NC(=O)CCNC(=O)c2ccc(Cl)cc2)cc1F	-5	2%	5.1	-20%	nt	-11	-13%
CCc1nc(NCc2cccnc2)c2oc3ccccc3c2n1	-14	-6%	-1.3	16%	?	8	-1%
CCC(CO)Oc1cc(NC(=O)c2ccccc2N)c2ncn(C(C)C)c2c1 (stereo not drawn)	13	-7%	nt	nt	?	nt	nt
CCc1ncc(CN2CCCC(C(=O)Nc3ccc(-c4cscn4)cc3)C2)cn1 (stereo not drawn)	0	-10%	nt	2%	-0.5%	2	1%
COc1ccc(OC)c(/C=N/NC(=O)c2c(C)nc3ccc(C)cn23)c1	3	-12%	-4.2	13%	3.6%	14	5%
COc1ccc(SC[C@H](CC(C)C)N2CCN(CCc3ccccc3)CCC2=O)cc1	37	-13%	3.5	-4%	-0.7%	-17	-26%
CN(Cc1ccccc1)C(=O)COc1ccccc1Cl	-3	7%	4.4	-16%	0.4%	1	12%
CC(=O)NC1(c2ccccc2)CCN(CC(=O)N2CCC(C)CC2)CC1	-6	-11%	0.1	30%	-2.1%	2	17%
CC1(C)CC(=O)C=C(Nc2ccc(F)cc2)C1	42	-7%	0.6	-13%	1.0%	-2	-4%
O=C(Nc1ccc2c(c1)OCO2)c1c[nH]c(=O)n(-c2ccc(F)cc2)c1=O	-8	-12%	3.1	-7%	-8.3%	-3	-3%

Part of the list above, bar-delimited.
Structure | TRPML1 inh | gsp antagonist | Menin MLL FP FL | gsp ag | ClpP mod | TRPV1 potentiator | Sfp PPTase inh
CCc1nc(NCc2cccnc2)c2oc3ccccc3c2n1 | -14 | -6% | -1.3 | 16% | ? | 8 | -1%
CCC(CO)Oc1cc(NC(=O)c2ccccc2N)c2ncn(C(C)C)c2c1 (stereo not drawn) | 13 | -7% | nt | nt | ? | nt | nt
CCc1ncc(CN2CCCC(C(=O)Nc3ccc(-c4cscn4)cc3)C2)cn1 (stereo not drawn) | 0 | -10% | nt | 2% | -0.5% | 2 | 1%
COc1ccc(OC)c(/C=N/NC(=O)c2c(C)nc3ccc(C)cn23)c1 | 3 | -12% | -4.2 | 13% | 3.6% | 14 | 5%
COc1ccc(SC[C@H](CC(C)C)N2CCN(CCc3ccccc3)CCC2=O)cc1 | 37 | -13% | 3.5 | -4% | -0.7% | -17 | -26%
CN(Cc1ccccc1)C(=O)COc1ccccc1Cl | -3 | 7% | 4.4 | -16% | 0.4% | 1 | 12%

Molecules above with a CF3 group (2):
SMILES	TRPML1 inh	gsp antagonist	Menin MLL FP FL	gsp ag	ClpP mod	TRPV1 potentiator	Sfp PPTase inh
COC(=O)/C(=C1/Oc2ccc(C(C)(C)C)cc2S1)C(F)(F)F	-19	9%	3.0	-26%	0.5%	-1	-4%
Cc1ccc(C(=O)Nc2cccc(C(F)(F)F)c2)cc1NC(=O)c1nccnc1N	1&6	0%	0.6	-4%&-5%	159%&4.4%	-13	-1%

A different layout for part of the listing above:
smiles | TRPML1 inh | gsp antagonist | Menin MLL FP FL | gsp ag | ClpP mod | TRPV1 potentiator | Sfp PPTase inh
CC(=O)NC1(c2ccccc2)CCN(CC(=O)N2CCC(C)CC2)CC1 | -6 | -11% | 0.1 | 30% | -2.1% | 2 | 17%
CC1(C)CC(=O)C=C(Nc2ccc(F)cc2)C1 | 42 | -7% | 0.6 | -13% | 1.0% | -2 | -4%

The list goes on.
SMILES	TRPML1 inh	gsp antagonist	Menin MLL FP FL	gsp ag	ClpP mod	TRPV1 potentiator	Sfp PPTase inh
COc1ccc(C2NC(C(=O)O)CS2)cc1COCC(F)(F)F (stereo not drawn)	22	6%	2.8	-29%	-1.7%	24	4%
O=C(CN1C(=O)/C(=C\c2ccccc2F)SC1=S)Nc1nc2ccccc2s1	0	-10%	16	-4%[15.4 µM]	nt	8	5%
Cc1nnc(NC(=O)CSc2ccc(-c3ccco3)nn2)s1	-16	6%	6.7	11%[15.4 µM]	nt	-7	25µM*
Cc1cc(C)c(C(=O)OCC(=O)NC(=O)c2ccccc2)c(C)c1	-22	12%	nt	-88%[inhibitor]	-2.6%	-14	nt
CCC(C)(C)NC(=O)c1cc(OC)c(OC)cc1[N+](=O)[O-]	2	4%	2.8	0%	-3.2%	-3	3%
O=C(CSc1nc2c(c(=O)n1-c1ccc(Cl)cc1)SCC2)N1CCOCC1	-8	-5%	-0.5	?	-3.3%	-51	10%
CC(C)(C)NC(=O)COC(=O)c1ccccc1OCC(=O)Nc1ccc(Br)cc1	-1	-1%	-0.8	-17%[15.4 µM]	nt	11	11%
COCCCn1c(SCC(=O)NC(C)(C)C)nnc1-c1cccs1	-5	7%	2.3	-21%[15.4 µM]	nt	-3	5%
CC(=O)c1ccc(S(=O)(=O)N2CCC3(CC2)CC(=O)c2ccccc2O3)cc1	15	-2%	nt	-45%[inhibitor]	?	-6	nt
COc1cc(OC)c2c(c1)OC(=O)CC2c1ccc2c(c1)OCO2 (stereo not drawn)	-17	-12%	8.6[94.6 µM]	nt	-14%	nt	?
Cn1cc(C(=O)OCC2CCN(CCNS(C)(=O)=O)CC2)c2ccccc21	-2	-11%	0.5&0.7	nt	-0.9%	nt	?
COc1cc(/C=C2\C(=N)N3N=C(N4CCOCC4)SC3=NC2=O)ccc1OC(=O)c1ccccc1	3	-16%	?	?	-3.8%	?	-26%
C/C(=N\NC(=O)c1nn(C)c(C)c1Br)c1cccc(NC(=O)c2ccoc2C)c1	-9	-7%	3.1	-79%[inhibitor]	9.6%	11	6%
COc1ccc(NC(=S)N2c3ccccc3CC2C)cc1OC (stereo not drawn)	34	-2%	3.3	-13%	0.8%	1	7%
CCOC(=O)N1CCN(C(=O)CSc2nc(=O)n3ccc(C)cc3n2)CC1	-7	17%	nt	?	-25%	-4	nt
CC1Cc2c([nH]c3ccccc23)C2c3ccccc3CN12 (stereo not drawn)	9	-6%	?	2%[15.4 µM]	0.8%	-14	-9%
COC(=O)c1ccc(/C=C/C(=O)OCC(=O)Nc2ncc(Cl)cc2Cl)cc1	50	-19%	nt	?	-3.7%	0	nt
CCOC(=O)/C(C#N)=C/c1c(Oc2cccc(C)c2)nc2ccccn2c1=O	-6	-13%	2.1	-12%	1.9%	4	7%
C=C(C)c1cccc(C(C)(C)NC(=O)NC2CC(C)(C)NC(C)(C)C2)c1	19	13%	-5.3	-107%[inhibitor]	-0.7%	1	23%
COCCOC(=O)c1c(C)oc2ccc(NS(=O)(=O)c3ccccc3)cc12	1	0%	-0.8	7%	-0.7%	-7	1%
CCOC(=O)/C(C#N)=C/c1cc2ccccc2nc1N1CCCCC1	-4	3%	?	11µM*	0.7%	-18	-15%
O=c1nc2ccc(Cl)cn2c2ccc(S(=O)(=O)N3CCOCC3)cc12	1	-26%	6.4	?	nt	0	-4%
COc1ccc(-c2cc3c(=O)n(CC(=O)Nc4ccc(Cl)cc4)ncn3n2)cc1	32	24%	nt	27%	-10%	18	6%

Already shown: 2 of the compounds above.
SMILES	TRPML1 inh	gsp antagonist	Menin MLL FP FL	gsp ag	ClpP mod	TRPV1 potentiator	Sfp PPTase inh
COc1ccc(C2NC(C(=O)O)CS2)cc1COCC(F)(F)F (stereo not drawn)	22	6%	2.8	-29%	-1.7%	24	4%
O=C(CN1C(=O)/C(=C\c2ccccc2F)SC1=S)Nc1nc2ccccc2s1	0	-10%	16	-4%[15.4 µM]	nt	8	5%

Source: PubChem (National Center for Advancing Translational Sciences (NCATS))

An unsorted share of the library; any-hit rate near 4.9%.
